# Vif A3G – inhibitors of Vif binding to APOBEC3G peptide, primary screen, biochemical, TR-FRET, GST-Vif 1-94, biotin-A3G peptide, dose response retest (AID 1117319). TR-FRET GST-Vif / biotin-A3G peptide binding; higher % means a stronger effect; test concentration not given here; strong numbers were not always called active. 0.57% of 260,000 active. inhibition, %; hits with a dose series show IC50 in µM;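 active = above the screen mean plus three standard deviations and confirmed in dose response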;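 also: Vif residues 1-94 fused to GST binding biotinylated APOBEC3G peptide 110-148; 0% = full assay without inhibitor and 100% = GST in place of GST-Vif; retest series ran down from 100 µM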
# E coli growth – inhibitors of Escherichia coli growth | 0.21% of 330,000 active | OD600 absorbance (concentration not given with the values) | OD600, 23 h; active compounds read low | AID 1053175;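 active = OD600 absorbance below the run mean of sample wells minus 3.6 SD, in any replicate, cut at about 0.56 in these data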;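 also: stock transfer was 300 nL into about 60 µL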
# HNF4A DNA FP – change in binding of human HNF4 alpha to DNA | P41235 | 0.3% of 360,000 active | HNF4a-FITC DNA binding, fluorescence polarization, 1 h | activity change, % at 10 µM; in the data active = activity change above about 30%, passing the limit was not always enough;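 also: controls were the assay level and a saturating level of protein; the project sought stronger binding though the title names inhibitors; some compounds called inactive have numbers as strong as hits; positive values seem to mean higher polarization but the record does not say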
# Target sequence (P41235 whole entry, looked up): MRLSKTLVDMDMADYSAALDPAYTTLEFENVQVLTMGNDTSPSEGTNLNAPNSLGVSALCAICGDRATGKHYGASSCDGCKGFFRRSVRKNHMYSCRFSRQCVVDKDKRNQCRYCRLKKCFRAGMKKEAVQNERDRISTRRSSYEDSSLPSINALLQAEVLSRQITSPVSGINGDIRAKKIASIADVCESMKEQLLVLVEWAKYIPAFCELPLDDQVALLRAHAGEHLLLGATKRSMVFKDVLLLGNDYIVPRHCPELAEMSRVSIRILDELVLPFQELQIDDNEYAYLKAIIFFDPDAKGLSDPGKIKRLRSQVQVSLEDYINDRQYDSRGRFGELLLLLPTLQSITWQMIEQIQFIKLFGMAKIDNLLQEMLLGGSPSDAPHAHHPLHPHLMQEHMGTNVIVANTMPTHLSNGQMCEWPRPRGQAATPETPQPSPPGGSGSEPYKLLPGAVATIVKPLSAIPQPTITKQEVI
# ALR H2O2 inh – blocks human ALR sulfhydryl oxidase activity; purified ALR, DTT oxidation, H2O2 HRP-luminol luminescence; AID 485317; P55789; inhibition, % (no concentration beside the values); 3.8% of 290,000 active;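 active = mean and each replicate at 75% or more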;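 also: stock transfer was 7.5 nL into about 7.5 µL; 0% = neutral wells and 100% = wells with inactivated enzyme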
# Target sequence (P55789 whole entry, looked up): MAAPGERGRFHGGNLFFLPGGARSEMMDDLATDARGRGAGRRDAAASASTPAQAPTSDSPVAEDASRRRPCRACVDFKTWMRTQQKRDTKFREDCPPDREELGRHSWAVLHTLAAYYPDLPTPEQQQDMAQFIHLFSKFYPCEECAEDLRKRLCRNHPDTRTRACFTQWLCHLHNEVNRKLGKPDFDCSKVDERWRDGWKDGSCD
# AF4-AF9 inh – MLL-AF4/AF9 protein interaction inhibition | AlphaScreen, biotin-AF4 peptide binding to FLAG-AF9 | inhibition, % at 10 µM | 0.47% of 350,000 active;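 active = every replicate reaching a set inhibition limit, whatever the replicate mean, cut at about 25% in these data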;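 also: 0% = plate neutral control median and 100% = total signal loss; the record names both 10 and 1 µM as test concentration; the first replicate is given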
# FGF22 binding – binders of recombinant human FGF22 by thermal shift. SYPRO orange fluorescence; percent of sucrose octasulfate shift, DMSO zero. calls only at 9.99 µM. 1.5% of 340,000 active. AID 651658. Q9HCT0;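 active = melting point raised past a set limit in the mean and every replicate; three in four hits are not shown here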
# Target sequence (Q9HCT0 whole entry, looked up): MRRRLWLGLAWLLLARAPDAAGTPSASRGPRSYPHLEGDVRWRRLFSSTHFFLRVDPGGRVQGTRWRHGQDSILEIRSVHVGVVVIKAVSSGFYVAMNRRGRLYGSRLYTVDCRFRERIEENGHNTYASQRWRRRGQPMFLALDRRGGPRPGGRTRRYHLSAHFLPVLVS
# rRNA inh HTS – inhibits bacterial ribosomal RNA function over humanized ribosomes. E. coli WT GFP vs humanized-ribosome RFP mutants, fluorescence, 24 h; active compounds read low; DMSO median 0, no signal -100. GFP signal change (wild-type ribosome), % (test concentration not listed). 1.6% of 350,000 active. AID 720706;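 active = significant combined selectivity score with lowered wild-type GFP, culture density cut under 30%, mutant RFP and density less affected; inactive = any of these conditions unmet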; also: one replicate is shown; some compounds called inactive have numbers as strong as hits
# rRNA inh HTS OD600 – further read-out of rRNA inh HTS, marked with its call; OD600 change, %; measured here: OD600 growth;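 optical density of the mix in the first replicate; 0 = DMSO median and -100 = no signal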
# rRNA inh HTS RFP – recorded beside rRNA inh HTS, whose call it bears; RFP signal change, %; measured here: RFP humanized mutant strains;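 first replicate; 0 = DMSO median and -100 = no signal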
# The depositor's hits bear a star; i = inactive; x = not tested or not shown; + = active, no number; & = joins results of further samples. The list is partial; rates above refer to the full screens.
SMILES,Vif A3G,E coli growth,HNF4A DNA FP,ALR H2O2 inh,AF4-AF9 inh,FGF22 binding,rRNA inh HTS,rRNA inh HTS OD600,rRNA inh HTS RFP
Oc1ccccc1CN1CCCC(N2CCc3ccccc3C2)C1 (centres undefined),x,0.71,1.4,11,1.0,i,13,4,1.6
COc1ccc(C(=O)n2nc(C)c(Br)c2C)cc1,30%,0.74,-0.2,-10,x,x,x,x,x
CC(=O)N1CCN(Cc2nc3cc(NC(=O)COc4cccc(C)c4)ccc3n2C)CC1,x,0.7,2.6,35,2.3,i,0,-3,-3.1
CCc1cccc(CC)c1C(OC(C)=O)c1cccnc1 (centres undefined),x,0.64,-0.6,-5,-3.1,x,10,11,1.0
COc1ccc(C(=O)NC2CCCc3c2cnn3-c2ccc(C)c(C)c2)c(OC)c1OC (centres undefined),x,x,-2.3,26,1.8,i,-32,-61,-1.1
COC(=O)[C@H]1[C@H](CO)[C@H]2Cn3c(ccc(-c4ccccc4F)c3=O)[C@H]2N1CC1CCCC1,x,x,x,x,0.2,i,-6,-22,7.7
COc1ccc(S(=O)(=O)N(C)C[C@@H]2Oc3ccc(N(C)C)cc3C(=O)N([C@H](C)CO)C[C@@H]2C)cc1,x,x,x,x,2.7,i,-4,0,0.0
CP(=O)(Nc1cc(Cl)ccc1Cl)c1nc2c(s1)CCCC2 (centres undefined),-10%,0.7,3.9,-6,-4.6,i,-6,-10,3.3
COc1cc(F)c(C2=CC(=O)C[C@H](c3ccc(Cl)cc3)C2)cc1F,x,x,-4.5,-3,1.4,i,-16,-22,-11
CCOC(=O)C1=C(c2ccccc2)Nc2ncnn2C1c1ccccn1 (centres undefined),30%,0.74,0.6,-1,x,x,x,x,x
COc1cccc(NC(=O)CSc2nnnn2C2CCCCC2)c1,x,0.69,-1.1,x,2.2,i,x,x,x
Cc1cc(C)n(-c2nnc(C)n2NC(=O)c2cccc(Cl)c2)n1,21%,0.73,-2.7,-4,x,x,x,x,x
CC(C)C[C@H]1COc2cccc(N(C)CCO)c2S(=O)(=O)N1,x,x,-4.9,x,-2.2,i,-2,4,-1.1
O=C1CC(=O)N(CCc2ccc(F)cc2)C(=O)N1,-7%,0.75,11,x,x,x,x,x,x
Cc1ccc(/C=C/C(=O)N2CCCN(C(=O)/C=C/c3ccc(C)cc3)CC2)cc1,28%,0.68,2.6,-1,x,x,x,x,x
CCCCNC(=O)C(=O)NC(C)CCc1ccccc1 (centres undefined),5%,0.71,0.0,7,x,x,x,x,x
C[C@@H]1CN([C@@H](C)CO)C(=O)Cc2cc(NC(=O)NC3CCCCC3)ccc2O[C@H]1CN(C)Cc1ccc(C(=O)O)cc1,x,x,x,x,-0.7,i,3,10,0.0
CCC/C=C/c1ccc(CN2C(CC(C)C)C(=O)N(Cc3cn(CCOCOC)nn3)CCS2(=O)=O)cc1 (centres undefined),-4%,x,1.3,x,2.4,i,0,10,-1.7
CO[C@H]1CC[C@H]2CCOc3c(C#N)cccc3C(=O)N(C)C[C@@H](c3ccccc3)CC(=O)N(C)C[C@H]1O2,x,x,x,x,-3.3,i,0,20,1.2
COC(=O)[C@@H]1C(c2c(OC)cc(OC)cc2OC)=NO[C@H]1C(=O)OC,x,0.68,0.0,2,6.9,i,2,4,-1.4
CCC(Sc1nc2n[nH]c(C)c2c(=N)n1-c1cccc(Cl)c1)C(=O)NCCOC (centres undefined),2%&-5%,0.75,1.3,4,x,x,x,x,x
C/C(=N\NC(=O)C(C)Oc1ccc([N+](=O)[O-])cc1)c1ccccn1 (centres undefined),66%,x,-3.0,-2,x,x,x,x,x
CCOC(=O)c1sc(=S)n(CC)c1N,0%,0.67,-2.1,99*,x,x,x,x,x
C[C@H](O)C#Cc1cnc2c(c1)C(=O)N([C@H](C)CO)C[C@H](C)[C@@H](CN(C)CC1CCCCC1)O2,x,x,x,x,-0.5,i,-1,3,-0.5
CC1CCc2c(sc(NC(=O)CCc3nc4ccccc4c(=O)[nH]3)c2C#N)C1 (centres undefined),-9%,0.7,8.3,-2,-3.8,i,1,5,-1.0
CCCNC(=O)C[C@H]1C[C@@H]2c3cc(NC(=O)C4CCOCC4)ccc3O[C@@H]2[C@@H](CO)O1,x,x,x,x,-2.0,i,-4,-2,-0.6
CC1(c2ccc3ccccc3c2)NC(=O)N(CC(=O)N2CCN(Cc3ccc(C#N)cc3)CC2)C1=O (centres undefined),5%,0.66,-0.3,x,x,x,x,x,x
COC(=O)c1ccc(N=NN2CCCCC2)cc1,8%,0.62,1.0,3,-1.0,i,-21,-30,-2.8
C/C(=N\NC(=O)c1ccc(CN2CCOCC2)cc1)c1cccc([N+](=O)[O-])c1,7%,x,0.6,-2,1.0,i,17,17,1.8
CCC(=O)N1CCc2cc(S(=O)(=O)CCC(=O)N(C)c3ccc(OC)cc3)ccc21,2%,0.72,3.0,x,-2.6,i,3,2,-1.2
C[C@@H]1CN([C@@H](C)CO)C(=O)c2cc(C#Cc3cccnc3)cnc2O[C@H]1CN(C)S(=O)(=O)c1ccccc1F,x,x,x,x,-2.6,i,-5,-2,0.4
NC(=O)C1=C[C@H](c2ccc3c(c2)OCO3)C[C@H](OCc2ccc(CO)cc2)O1,25%,x,21,-48,-3.7&-8.6,i,7,3,-0.8
CSCC[C@H](NC(=O)NCCC1=CCCCC1)C(=O)O,2%,x,1.4,-18,x,x,x,x,x
C[C@@H](c1ccccc1)N1C[C@@H](COCc2ccccc2)Oc2cc(N3CC[C@H](N(C)C)C3)ccc2S1(=O)=O,x,x,1.6,x,1.4,i,-2,-8,0.3
N#Cc1ccccc1N=C1CCCN1Cc1ccccc1,1%,0.73,-2.7,1,x,x,x,x,x
Cc1ccc(C)c(N2CCN(C(=O)C34CC5CC(C3)CC(n3nnc(C)n3)(C5)C4)CC2)c1,4%,0.69,2.1,-11,4.5,+,-14,-5,-5.2
Cc1nn(-c2ccc(N3CCOCC3)nn2)c(C)c1CCC(=O)N1CCN(C)CC1,x,0.68,2.8,0,0.0,i,8,12,-0.7
CC(=O)NC1CC2CCCC(C1)N2S(=O)(=O)c1ccccc1 (centres undefined),-1%,0.67,-2.9,-8,x,x,x,x,x
O=C(NCCN1C(=O)S/C(=C\c2cccnc2)C1=O)C1CC(=O)N(Cc2ccco2)C1 (centres undefined),9%,0.68,3.1,-6,-5.5,x,9,20,0.6
O=C(Nc1nnc(N2CCCCCC2)s1)c1cc(-c2ccc(Br)cc2)on1,-2%,0.76,1.4,5,-3.3,i,5,0,5.8
O=C(COC(=O)c1ccc(OC(F)F)cc1)NCCCN1CCCC1=O,-6%,0.72,2.0,-2,10,i,7,0,-3.6
Cc1cc(=O)[nH]c(N/N=C/c2ccc(C)o2)n1,3%,x,1.8,27,-4.9,i,1,3,6.6
O=C(NC(C(=O)N1CCCC1C(=O)O)=C1CCCCC1)c1ccccc1 (centres undefined),2%,0.77,-0.7,x,x,x,x,x,x
C[C@@H]1CN([C@H](C)CO)C(=O)CCCn2nncc2CO[C@H]1CN(C)C(=O)c1ccncc1,x,x,1.1,x,-2.9&-5.2&-3.3,i,-3&0,12&0,6.6&-1.3
COc1ccc(N2CCN(C(=O)[C@@H]3CCCN3C3=NS(=O)(=O)c4ccccc43)CC2)cc1,-8%,0.69,-3.8,x,-1.2,i,x,x,x
O=C(NC1CCCC1)C(c1c[nH]c2ccccc12)N(C(=O)Cn1nnc(-c2ccc(Cl)cc2)n1)c1ccccc1 (centres undefined),-7%,0.65,3.2,x,x,x,x,x,x
Cc1ccccc1-c1noc(CNC(=O)c2ccco2)n1,x,0.64,2.2,-3,1.5,i,-3,-1,1.0
Cc1ccc(C)c(S(=O)(=O)Nc2ccc(C(=O)NCCc3ccccn3)cc2)c1,2%,0.72,-3.6,18,1.0,i,-1,-3,-3.3
COCCn1c(SCC(=O)NCCc2ccc(OC)c(OC)c2)nc2c([nH]c3ccccc32)c1=O,-12%,0.73,-2.5,14,-1.8,i,0,1,-0.9
Cc1noc(C)c1NC(=O)N[C@@H]1C=C[C@H](CC(=O)Nc2ccc(-c3ccccc3)cc2)O[C@@H]1CO,x,x,x,x,0.2,+,-8,-16,-0.7

# Further entries:
SMILES,Vif A3G,E coli growth,HNF4A DNA FP,ALR H2O2 inh,AF4-AF9 inh,FGF22 binding,rRNA inh HTS,rRNA inh HTS OD600,rRNA inh HTS RFP
C[C@@H]1CCCCO[C@H](CN(C)Cc2ccc(C(=O)O)cc2)[C@H](C)CN([C@@H](C)CO)C(=O)c2cc(NC(=O)C3CCCCC3)ccc2O1,x,x,x,x,1.6,i,1,-2,-0.6
O=C(c1csc2c1CCCC2)N1CCN(c2ncccn2)CC1,3%,0.71,-1.5,-17,5.6,i,-3,0,5.0
Cc1cccc(C(=O)Nc2cccc3c2CCCC3)c1,x,0.68,4.8,x,-1.7,i,10,19,2.9
CC(C)Cc1nnc(NC(=O)CSc2nc(-c3ccccc3)cc(=O)[nH]2)s1,4%,0.68,1.9,-9,-0.4,x,4,-2,-2.9
Cc1c(C(=O)N(C)c2ccccc2Cl)cnn1-c1ccccc1,x,0.7,0.3,-19,-11,i,-19,-20,-1.5
CCN(CC)CCCN1C(=O)C(O)=C(C(=O)c2ccc(C)o2)C1c1ccc(C)o1 (centres undefined),x,0.7,-1.6,-4,x,x,x,x,x
CCCC(=O)NC(=S)Nc1ccccc1OC,30%,0.66,3.9,33,x,x,x,x,x
C[C@@H]1CN([C@@H](C)CO)C(=O)c2cc(C3=CCCCC3)cnc2O[C@@H]1CN(C)C(=O)Nc1cccc(F)c1,x,x,x,x,2.6,i,-6,-3,6.6
O=C(COC(=O)c1cc([N+](=O)[O-])ccc1NCc1ccccc1)NC1CCCCC1,x,0.73,2.8,-12,x,x,x,x,x
CC(=O)Nc1ccc(OCC(=O)NCCc2ccccc2)cc1,-5%,0.7,-0.5,-5,2.2,i,3,1,-2.0
CCOC(=O)c1[nH]c2c(c1C)C(=O)CC(c1ccco1)C2 (centres undefined),22%,0.75,-12,-81,-1.5,i,-5,-4,6.6
CCCCCCn1c(=O)n2n(c1=O)[C@@H]1CN(S(=O)(=O)c3ccc(C)cc3)C[C@]1(O)[C@@H](OC(=O)NCc1ccccc1)C2,-7%,x,0.6,x,0.4,i,-2,-5,0.1
C[C@@H]1CN([C@H](C)CO)C(=O)Cc2cc(NS(=O)(=O)c3ccc(F)cc3)ccc2O[C@H]1CN(C)S(=O)(=O)c1cn(C)cn1,x,x,x,x,1.7,i,0,9,-3.8
Cc1ccc(S(=O)(=O)Nc2ccc3c(c2)CC(=O)N([C@H](C)CO)C[C@H](C)[C@@H](CN(C)C(=O)Nc2c(C)noc2C)O3)cc1,x,x,x,x,-1.3,i,3,9,0.6
Nc1cc(=O)[nH]c(=O)n1CC1CC1,x,0.8,-2.3,-4,x,x,x,x,x
COc1nc(OC)nc(N2CCC(NC(=O)C(Cc3ccc(C(C)C)cc3)NC(C)=O)CC2)n1 (centres undefined),21%,0.72,1.1,-3,x,x,x,x,x
CCOC(=O)CSc1nc(COc2ccccc2)nc2ccccc12,1%,0.7,0.5,8,-4.0,i,-9,-6,-0.7

# An excerpt of these results, bar-delimited.
canonical_smiles | Vif A3G | E coli growth | HNF4A DNA FP | ALR H2O2 inh | AF4-AF9 inh | FGF22 binding | rRNA inh HTS | rRNA inh HTS OD600 | rRNA inh HTS RFP
COc1nc(OC)nc(N2CCC(NC(=O)C(Cc3ccc(C(C)C)cc3)NC(C)=O)CC2)n1 (centres undefined) | 21% | 0.72 | 1.1 | -3 | x | x | x | x | x
CCCCCCn1c(=O)n2n(c1=O)[C@@H]1CN(S(=O)(=O)c3ccc(C)cc3)C[C@]1(O)[C@@H](OC(=O)NCc1ccccc1)C2 | -7% | x | 0.6 | x | 0.4 | i | -2 | -5 | 0.1
Cc1ccc(S(=O)(=O)Nc2ccc3c(c2)CC(=O)N([C@H](C)CO)C[C@H](C)[C@@H](CN(C)C(=O)Nc2c(C)noc2C)O3)cc1 | x | x | x | x | -1.3 | i | 3 | 9 | 0.6
